Bioassay records: PubChem, National Center for Advancing Translational Sciences (NCATS)
Sfp inh: inhibitors of Bacillus subtilis Sfp phosphopantetheinyl transferase; Potency, µM, without a hit: max response, negative = inhibition, actives largely listed as inhibitors; Q9F4F7; hit rate 3.5% among 310,000; AID 1490; Biochemical Sfp PPTase activity, qHTS; active = well fitted inhibition curve with a large enough effect; inconclusive = small, poorly fitted or top-dose-only effect, or another doubt; inactive = no such curve, though single readings can be large or run the other way;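 also: the enzyme is Sfp with the accession as filed and its product quenches rhodamine fluorescence; potency is read from the fitted curve at half-maximal effect; 0% = enzyme reaction without inhibitor and -100% = no enzyme wells; top concentration of the series not given in the record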
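Reaction rates are the 30-min fluorescence difference (ex 525, em 598 nm) in wells containing 15 nM Sfp, 5 uM rhodamine-CoA and 12.5 uM BHQ-2-YbbR at pH 7.6 with 10 mM MgCl2.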
TRPV1 potentiator: potentiators of human vanilloid receptor 1 (TRPV1); TRPV1-expressing cells, Fluo-8 calcium influx, capsaicin EC20 potentiation; host cell line not named in the record; control for the full effect not named in the record; hit rate 0.02% among 320,000; potentiation, % at 8.33 µM; active means potentiation above 80%; inconclusive means 30% to 80%; inactive means below 30%; also: 0% is about no effect
Target sequence (Q8NER1 whole entry, looked up): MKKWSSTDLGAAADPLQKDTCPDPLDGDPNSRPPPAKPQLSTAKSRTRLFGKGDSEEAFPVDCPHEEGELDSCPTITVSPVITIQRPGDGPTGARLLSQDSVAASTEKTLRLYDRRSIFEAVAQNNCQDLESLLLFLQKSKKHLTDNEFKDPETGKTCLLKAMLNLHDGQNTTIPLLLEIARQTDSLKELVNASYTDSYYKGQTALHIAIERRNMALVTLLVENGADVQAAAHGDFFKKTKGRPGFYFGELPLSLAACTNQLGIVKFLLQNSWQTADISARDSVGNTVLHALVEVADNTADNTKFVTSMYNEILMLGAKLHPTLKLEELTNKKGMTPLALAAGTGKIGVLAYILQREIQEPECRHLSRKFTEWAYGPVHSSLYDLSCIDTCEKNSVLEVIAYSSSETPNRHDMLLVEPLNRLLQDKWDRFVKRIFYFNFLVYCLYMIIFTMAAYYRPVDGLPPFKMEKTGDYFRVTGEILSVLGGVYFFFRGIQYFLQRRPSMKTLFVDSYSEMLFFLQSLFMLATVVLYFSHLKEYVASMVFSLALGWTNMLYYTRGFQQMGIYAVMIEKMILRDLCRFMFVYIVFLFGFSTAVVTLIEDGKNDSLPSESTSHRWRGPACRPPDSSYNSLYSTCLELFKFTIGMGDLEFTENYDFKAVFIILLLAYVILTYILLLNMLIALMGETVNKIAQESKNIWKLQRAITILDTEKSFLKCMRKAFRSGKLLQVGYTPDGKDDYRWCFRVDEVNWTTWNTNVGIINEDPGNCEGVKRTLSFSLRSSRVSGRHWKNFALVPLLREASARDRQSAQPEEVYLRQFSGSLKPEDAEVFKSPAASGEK
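Fluo-8 calcium influx in TRPV1-expressing cells, kinetic read (ex 480/em 520 nm). Compound added and read 3 min for agonist activity, followed by capsaicin at EC20 final and 2 min further read for enhancement.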
gsp antagonist: gsp mutant antagonism. AID 624288. hit rate 0.4% among 340,000. gsp-mutant cells, cAMP HTRF, 30 min; control for the full effect not named in the record. Potency, µM (series often up to 76.9 µM), inactives show at the highest dose activity change, negative = inhibition, usual class: inhibitors; active = falling curve of any shape with a large fitted effect; inconclusive = falling curve, mostly with a smaller effect; inactive = flat or rising curve; cell line not stated here;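 also: intracellular cAMP measured with PDE inhibitor Ro 20-1724 present during compound exposure; potency is read from the fitted curve at half-maximal effect; % is scaled to controls: 0 for no effect and ±100 for the full control effect; nearly all actives have a fitted effect of over 65% in size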
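Measurement of cellular cAMP by homogeneous time-resolved fluorescence following a 30 min compound exposure at 37C. The PDE inhibitor […] was present throughout; the assay buffer was DPBS with 0.05% BSA and 0.005% Tween 20.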
gsp agonist: gsp mutant agonism | gsp mutant cells, cAMP HTRF, 30 min; control for the full effect not named in the record | Potency, µM (series often up to 76.9 µM), inactives show at the highest dose activation (cAMP increase), hits mostly activators | hit rate 0.13% among 340,000; active = well fitted activation curve with a large enough effect; inconclusive = small, poorly fitted or top-dose-only effect, or another doubt; inactive = no such curve, though single readings can be large or run the other way; cell line not stated here;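 also: phosphodiesterase inhibitor Ro 20-1724 added with compounds to block cAMP breakdown; potency is read from the fitted curve at half-maximal effect; nearly all actives have a fitted effect of over 60% in size; about a fifth of the inactives were tested at one dose only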
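Cells stably selected in G418 were plated at 2000/well, grown 16-24 hr, then given compounds in DMSO with the PDE inhibitor […] (300 uM solution added) for 30 min at 37C; cAMP was read by HTRF.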
Menin-MLL FL inh: inhibitors of human menin-MLL interaction, wild-type MLL peptide; Fluorescence polarization, fluorescein-MLL peptide displacement from menin; FP activity change, % at 61.4 µM; 290,000 tested, under 10 active; inconclusive = falling polarisation curve, or a change in total fluorescence; inactive = total fluorescence flat and polarisation flat or rising; no compound was filed as active; the % refers to the polarisation; negative = inhibition;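 also: % of control where 0% means no effect; inhibitors lower the polarisation; unlabelled MLL peptide was the positive control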
TRPML1 inh: human mucolipin-1 channel inhibition. TRPML1-inducible cells, Ca2+ dye fluorescence, FDSS; stronger effect = lower value; inhibition of EC80 agonist-evoked calcium signal. activity change, negative = inhibition, % (no concentration beside the values). hit rate 0.02% among 390,000. AID 624415; in the data active means activity change below about -50%; inconclusive means about -30% to -50%; inactive means above about -30%;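 also: stimulus is agonist 54-4 at its EC80 concentration; % is scaled to controls: 0 for no effect and ±100 for the full control effect; compound concentration not given in the record; the text of the record puts the active cut at -80%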
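Tet-induced TRPML1-DL cells loaded with Ca8 no-wash calcium dye were read kinetically on FDSS. Compound addition was followed by EC80 agonist 54-4 (4 uM final); inhibition was read over 110 s.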
ClpP mod: qHTS Assay for Activators of ClpP; ATP-dependent Clp protease proteolytic subunit (Bacillus subtilis (strain 168)), P80244; purified B. subtilis ClpP, FRET peptide cleavage, 20 min; Potency, µM (doses to about 57.5 µM), for the others: at the highest dose activity change, negative = active; hit rate 1.9% among 340,000; AID 651965, 2013; active = well fitted falling curve with a large enough effect; inconclusive = small, poorly fitted or top-dose-only effect; inactive = no such curve, though single readings can be large or run the other way; also: potency is read from the fitted curve at half-maximal effect; the source files actives as falling curves though it sought activators and does not explain the sign; nearly all actives have a fitted effect of over 65% in size; many hits overshoot -100%
Target sequence (P80244 whole entry, looked up): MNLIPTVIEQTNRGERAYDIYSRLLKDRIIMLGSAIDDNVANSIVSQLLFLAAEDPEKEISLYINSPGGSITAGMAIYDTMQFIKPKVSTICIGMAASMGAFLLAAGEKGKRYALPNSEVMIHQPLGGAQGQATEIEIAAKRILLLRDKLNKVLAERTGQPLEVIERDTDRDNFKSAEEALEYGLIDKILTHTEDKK
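Purified B. subtilis ClpP, 10 microg/mL final in Tris/HCl pH8 with KCl, BSA, glycerol and Tween-20, cleaved an Abz/nitrotyrosine-quenched decapeptide. Fluorescence (ex 320, em 430) was read at 0 and 20 min at room temperature. Delta was normalized to 5.8 microM ADEP and DMSO/no-enzyme controls.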
* marks the source's active call; other numbers are inactive results; ? = inconclusive; . = not tested or not shown; & = joins results of further samples; [ ] = dose if it differs, or a comment.

SMILES	Sfp inh	TRPV1 potentiator	gsp antagonist	gsp agonist	Menin-MLL FL inh	TRPML1 inh	ClpP mod
Cc1nc2[nH]c(=O)n(O)c(=O)c2s1	.	.	5%	13%	.	24	-1.1%
CC(C)(C)OC(=O)N1CCc2onc(-c3ccc([N+](=O)[O-])cc3)c2C1=O	.	.	.	?	.	32	-3.2%
CCOC(=O)CC1COc2ccccc2N1C(=O)c1cccc([N+](=O)[O-])c1 (stereo not drawn)	11%	8	1%	-21%	0.5	-11	.
Cc1[nH]c2ccccc2c1/C=C(/C#N)C(=O)NC(C)C	14%	-20	7%	7%	4.5	-13	.
COc1ccc(N2CCN(S(=O)(=O)c3ccc4c(c3)NC(=O)C(C)C(=O)N4)CC2)cc1 (stereo not drawn)	7%	24	-10%	-123%[inhibitor]	6.7	40	0.1%
CC(c1ccccc1)C(NC(=O)OCC1c2ccccc2-c2ccccc21)C(=O)O (stereo not drawn)	.	-5	-15%	.	.	-2	2.5%
CN(Cc1ccccc1)C(=O)c1ccc(NC(=O)Cc2cccc(NC(=O)C3CCN(C(=O)C4CCC4)CC3)c2)cc1	.	3	5%	2%	.	7	-0.1%
CCN1CCN(CCC(=O)Nc2cccc(OC)c2)CC1	14%	-7	3%	?	-1.2	0	-11%
S=C(NC1CC2CCC1C2)N1CCN(c2cccc(Cl)c2)CC1 (stereo not drawn)	9%	0	?	?	-5.9	11	-0.6%
Cc1noc(C)c1C(=O)NC(C)c1ccc2c(c1)OCO2 (stereo not drawn)	21%	-5	-3%	-5%	3.6	13	-0.1%
COCCNC(=O)Cn1c(=O)n(CCCCCC(=O)NCc2ccc3c(c2)OCO3)c(=O)c2sccc21	16%	-2	.	.	-1.1	14	-0.7%
O=C(N/N=C/c1ccco1)c1cccc(NC(=O)c2ccccc2Cl)c1	22%	2	1%	-12%	-2.9	9	.
CSc1cccc(NC(=O)CSc2ccccc2)c1	14%	3	-2%	19%	2.4	-1	0.7%
NC(=O)COC(=O)/C=C/c1ccc2ccccc2n1	26%	3	-30%	-6%[15.4 µM]	-0.1	7	.
CC(=O)c1c(NC(=O)c2ccccc2)[nH]c(-c2ccccc2)nc1=S	25%	?	-19%	0%	1.5	1	.
O=C(C[n+]1ccc(-c2nnc3n2CCC3)cc1)c1ccc(Cl)c(Cl)c1	5%	0	2%	?	-2.2	-9	28µM*
O=C(Nc1ccncc1)Nc1cc(Cl)ccc1Cl	8%	-10	-7%	0%	2.0	-26	-2.0%
COc1cc(C=O)ccc1OCc1c(C)noc1C	13%	-11	-7%	-6%	3.8	-11	-7.5%
CC(C)C(=O)Nc1c(-c2ccccc2)c(=O)c2ccccc2n1C	33%[activator]	4	-13%	1%[15.4 µM]	3.3	-18	.
N#CC1(NC(=O)CN2C(=O)c3ccc([N+](=O)[O-])cc3C2=O)CCCCC1	.	-6	6%	-4%	.	4	-1.4%
O=[N+]([O-])c1cc(S(=O)(=O)NC2=NCCCCC2)ccc1NCC1CCCCC1	-3%	-20	-20%	-8%	-3.5	-26	2.0%
N#C/C(=C\c1ccncc1)c1nc2c(s1)CCCC2	11%	-12	7%	-2%	-4.9	-2	?
COc1cc(/C=N/NC(=O)c2ccc(-c3ccccc3)cc2)cc(OC)c1OC	?	-1	?	27%	-1.7	-7	?
CCOC(=O)c1cnc2ccc(C(=O)OC)cc2c1NCc1ccco1	20%	15	.	.	-0.9	.	.
COc1ccc(C(=O)COc2ncnc3cc(Cl)ccc23)cc1	20%	-8	4%	26%	-3.2	66	.

Remaining list, next part.
SMILES	Sfp inh	TRPV1 potentiator	gsp antagonist	gsp agonist	Menin-MLL FL inh	TRPML1 inh	ClpP mod
CCN(C[C@H]1N[C@@](C)(C(=O)OC)[C@H]2C(=O)N(Cc3ccccc3)C(=O)[C@@H]12)C(=O)c1ccc(F)cc1	.	.	6%	.	.	-10	2.3%
COc1ccc(OC)c(NC(=O)c2ccc(-c3cccs3)cc2)c1	-5%	8	?	0%	-3.9	-5	.
COc1ccccc1/C=C/C(=O)NCc1cccnc1	20%	-17	6%	-30%	-3.6	20	-3.1%
Cc1nnc2c3ccccc3c(-c3cccs3)nn12	13%	-5	-10%	-2%[15.4 µM]	5.1	-5	.
CCn1c(SCC(=O)NC(=O)c2ccccc2OC)nc2ccccc21	-3%	14	-3%	-56%[inhibitor]	.	16	-1.4%
CC(C)CN(CC(C)C)CC(O)COc1ccc([N+](=O)[O-])cc1 (stereo not drawn)	-5%	-36	9%	?	6.7	-4	1.7%
CCCc1[nH]nc2c1C(c1ccoc1)C(C#N)=C(N)O2 (stereo not drawn)	18%	6	27%	-6%	1.2	-10	1.2%
COc1cccc(/C=C/C(=O)NNC(=O)c2ccco2)c1OC	.	2	-1%	-35%[inhibitor]	.	-7	-0.2%
O=c1[nH]c(S)nc2sc3c(c12)CCCC3	45µM*	12	0%	?	2.6	-5	-19%
CN1C(=O)c2ccc(C(=O)Nc3cccnc3)cc2C1=O	14%	-11	-1%	-9%	.	-5	1.2%
COCC(C)n1c(C)cc(C(=O)COC(=O)c2nn(C)c(=O)c3ccccc23)c1C (stereo not drawn)	.	.	-5%	-2%[15.4 µM]	.	18	1.0%
CCN(CC)S(=O)(=O)c1ccc(N)cc1	15%	-1	3%	19%[15.4 µM]	-1.5	-21	0.0%
CCCn1cnc2cc(NC(=O)c3cccs3)ccc21	12%	8	5%	-28%	0.6	-5	-0.4%
C[C@]12CCC(=O)C=C1C=C[C@@H]1[C@@H]2CC[C@@]2(C)[C@H]1CC[C@@]21CCC(=O)O1	-13%	-2	-16%	17%	0.1	-25	-1.4%
CC(C)(C)[C@H]1CCC(=O)N([C@H](CSc2ccc(Br)cc2)Cc2ccccc2)CC1	.	-19	-2%	?	.	16	-0.4%&-0.8%
O=C(NCc1ccco1)C(=O)NCc1ccccc1Cl	-11%	20	-4%	-15%[15.4 µM]	0.7	3	1.4%
Cc1ccc(N/C=C/C(=O)c2ccccc2)cc1C	-7%	-16	2%	3%	16	37	-1.3%
O=C(Nc1ccnn1C1CCN(Cc2cccc(OCCO)c2)CC1)c1cccc(F)c1	-3%	-2	3%	-3%	-5.6	-11	-0.7%
O=C(Cc1ccc(NC(=O)C2CCCN(C(=O)CCc3ccccc3)C2)cc1)Nc1cccc(C(=O)N2CCCC2)c1 (stereo not drawn)	.	.	?	.	.	-9	1.0%
CC(=O)Nc1sc(C)c(C)c1C(=O)OCC(=O)Nc1ccccc1C(F)(F)F	.	.	.	14%	.	-8	0.0%
CN(C)c1nc(-c2cccnc2)nc(-c2ccc(Cl)cc2)c1C#N	10%	-4	-7%	-28%	-7.6	5	.
N#Cc1nc(-c2ccccc2)oc1NCCN1CCCCC1	1%	?	1%	2%	5.8	-1	15%
CCOC(=O)c1sc2nc(C)nc(Nc3ccccc3)c2c1C	0%	-5	-17%	12%	-1.4	9	.
COc1ccc(NC(=S)N2CCCC(c3nc4ccc(C)cc4[nH]3)C2)c(OC)c1 (stereo not drawn)	-20%	-5	-5%	-4%	?	9	-0.2%
COc1ccc(NS(=O)(=O)c2ccc(O)c(C(=O)OCC(=O)N3CC(C)OC(C)C3)c2)cc1 (stereo not drawn)	15%	-5	2%	-4%	0.8	-11	-16%

Following part.
SMILES	Sfp inh	TRPV1 potentiator	gsp antagonist	gsp agonist	Menin-MLL FL inh	TRPML1 inh	ClpP mod
CC(=O)N1CCN(CC(=O)Nc2cc(S(=O)(=O)N3CCCCC3)ccc2C)CC1	.	.	-2%	3%	.	-9	1.4%
O=C(CCCl)Nc1nc2c(s1)CCc1ccccc1-2	?	12	1%	?	-1.0	10	.
Nc1cccc(C(=O)Nc2ccco2)c1	2%	19	-11%	5%	4.3	-6	-2.9%
O=C(NC1=CC(=O)c2ccccc2C1=O)c1ccccc1	.	.	-8%	-33%	.	4	.
COc1cccc2c(C)c(C(=O)O)[nH]c12	-1%	-2	-11%	15%	7.0	21	25µM*
CNC(=O)Nc1ccc(S(N)(=O)=O)cc1	21%	-18	-1%	-1%	-1.6	-14	.
O=C(Nc1ccc(F)cc1)Nc1cnccn1	5%	-6	-6%	-22%	-1.6	7	-8.7%
CCc1nnc(NC(=O)c2ccc(OC)cc2)s1	8%	-19	11%	3%[15.4 µM]	-3.1	-1	-0.9%
Cc1nc(SCC(C)C)[nH]c(=O)c1Cc1ccccc1	9%	-3	7%	-8%	0.6	4	0.3%
O=C(Cc1ccc(F)cc1)Nc1cc(S(=O)(=O)N2CCOCC2)ccc1N1CCCCC1	.	.	.	?	.	14	-1.3%
O=[N+]([O-])c1ccc(Cl)c(S(=O)(=O)/N=C(/c2ccccc2)N2CCOCC2)c1	-13%	0	3%	?	0.2	8	.
CN(C(=O)c1ccccn1)C1(C(=O)NC2CCCCC2)CCCCC1	12%	-2	9%	-21%	0.9	-4	-0.7%
O=C(O)CCCC(=O)N1N=C(c2c(-c3ccccc3)c3cc(Cl)ccc3[nH]c2=O)CC1c1cccs1 (stereo not drawn)	-7%	-4	-22%	-5%	5.5	4	?
CCCCNC(=O)c1nn2c(C(F)(F)F)cc(-c3ccc(OC)cc3)nc2c1Br	14%	-21	-18%	27%	-1.1	-4	.
CCC(=O)NNc1ncnc2c1cnn2-c1cccc(C)c1	4%	-13	4%	4%[15.4 µM]	-2.2	-5	1.9%
COc1cc(=O)[nH]c(SCC(=O)Nc2nc3c(s2)CCCC3)n1	17%	17	-39%	17%[15.4 µM]	1.5	-5	0.5%
O=S(=O)(c1ccccc1Cl)N1CCCC1c1nc(-c2cccc(Cl)c2)no1 (stereo not drawn)	4%	6	?	11%	-1.0	82	0.8%
O=c1c2cn[nH]c2[nH]c(=S)n1-c1ccccc1Cl	56µM*	-3	.	-14%[15.4 µM]	-2.7	7	.
CN(c1ccc(C(=O)NCc2ccncc2)cc1)S(=O)(=O)c1ccc(Cl)cc1	7%	-6	-3%	3%[15.4 µM]	-3.7	-10	0.9%
